Source: PubChem (several laboratories)
PKD1 inh = blocks activity of human protein kinase D1; PKD1 kinase fluorescence polarization assay; AID 797; 200,000 tested, 0.056% active; inhibition, %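 (about 10 µM by stock and volumes)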; Q15139;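 active = inhibition of 50% or more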;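 note: controls were vehicle for no effect and a reference inhibitor for full effect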
INS promoter inh = TRM-6 insulin promoter activity inhibition; TRM-6 cells (human fetal islet line), insulin promoter-eGFP reporter, imaging; reporter expression induced with tamoxifen; inhibition, % at 2 µM; 130,000 tested, 0.9% active; AID 1273;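 active = inhibition above the mean plus 3 SD, with well images judged a real hit on visual review, cut at about 60% in these data, passing the limit was not always enough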
RGS16-Gao HTS = regulators of human RGS16-Galphao interaction; O15492+P09471; bead-based flow cytometry RGS16-Galphao binding, fluorescence; actives lie on both sides; binding response (% of control), % at 10 µM; 220,000 tested, 0.38% active; AID 1441;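 active = below 25% or above 175%, edge rows of some plates excepted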;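 note: Galphao activated by GDP with aluminum fluoride before binding; 100% = wells without compound and 0% = beads without RGS; some results beyond the cut were filed as inactive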
Target sequence (O15492 whole entry, looked up): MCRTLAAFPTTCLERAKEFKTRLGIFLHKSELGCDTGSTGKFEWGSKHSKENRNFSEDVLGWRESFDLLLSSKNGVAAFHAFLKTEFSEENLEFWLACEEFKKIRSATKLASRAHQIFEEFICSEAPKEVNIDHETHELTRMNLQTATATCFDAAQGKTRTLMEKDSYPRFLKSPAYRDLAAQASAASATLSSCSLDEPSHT
Target sequence (P09471 whole entry, looked up): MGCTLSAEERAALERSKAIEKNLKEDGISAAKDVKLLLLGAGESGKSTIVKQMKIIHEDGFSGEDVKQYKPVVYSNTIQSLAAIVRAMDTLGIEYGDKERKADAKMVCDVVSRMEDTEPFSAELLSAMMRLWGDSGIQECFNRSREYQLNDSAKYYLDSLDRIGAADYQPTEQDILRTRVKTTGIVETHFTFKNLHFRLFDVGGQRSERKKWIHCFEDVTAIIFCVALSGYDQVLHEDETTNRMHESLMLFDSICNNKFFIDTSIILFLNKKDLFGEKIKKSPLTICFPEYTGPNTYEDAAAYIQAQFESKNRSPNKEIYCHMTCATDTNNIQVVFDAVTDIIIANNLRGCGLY
GALR2 agonist = GALR2 (human) receptor agonism; O43603; activation, %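 (tested at 5 µM)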; 140,000 tested, 0.48% active; GALR2-expressing cells, agonist activation read-out;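 active = above mean plus 3 SD of all compounds, about 5% in these data, not always enough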;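 note: 0% = vehicle buffer wells and 100% = reference agonist at full effect; tested in CHO reporter cells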
Target sequence (O43603 whole entry, looked up): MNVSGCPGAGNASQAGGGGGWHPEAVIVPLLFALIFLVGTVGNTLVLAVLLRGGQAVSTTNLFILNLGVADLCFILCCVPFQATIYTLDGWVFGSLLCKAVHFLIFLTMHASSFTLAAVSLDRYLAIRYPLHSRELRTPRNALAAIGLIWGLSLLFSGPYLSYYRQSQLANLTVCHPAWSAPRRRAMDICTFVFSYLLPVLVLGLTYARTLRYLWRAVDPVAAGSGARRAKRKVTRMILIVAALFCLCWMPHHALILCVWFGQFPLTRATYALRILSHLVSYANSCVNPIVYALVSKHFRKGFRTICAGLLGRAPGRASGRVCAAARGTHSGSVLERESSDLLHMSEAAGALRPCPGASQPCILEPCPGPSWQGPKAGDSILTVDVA
HSV replic up = increases HSV replication in cells. HSV replication augmentation in cells, fold increase. maximum fold increase. 220,000 tested, 0.005% active. AID 1956;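 active = peak rise of 1.5-fold or more in the series; tested in PC3 cells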;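 note: first round at 10 µM; read as green reporter fluorescence; hits show the peak of a series up to 25 µM; 1 = signal of infected wells without compound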
INS promoter inh cell count = recorded beside INS promoter inh, whose call it bears; normalized cell count, %; measured here: cell count, toxicity; reference of the scale not given here;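 cells exposed to compound for 48 h; stained nuclei by imaging scaled within each plate; lower means fewer cells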
HSV replic up primary fold = recorded beside HSV replic up, whose call it bears; fold increase; compound at 10 µM; measured here: primary screen fold increase 10 uM; tested in PC3 cells;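 GFP signal in the first replicate; 1 = infected wells without compound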
The depositor's hits bear a star; i = inactive; x = no result given.

SMILES	PKD1 inh	INS promoter inh	INS promoter inh cell count	RGS16-Gao HTS	GALR2 agonist	HSV replic up	HSV replic up primary fold
C/C(=N\NC(=O)c1ccc(CN(C)S(=O)(=O)c2ccc(C)cc2)cc1)c1ccc(OC(F)F)cc1	3	x	x	86	-0.7	i	1.1
C/C(=N/NC(=S)Nc1ccccc1)c1ccc2c(c1)OCO2	-8	-17	102	105	-1.4	i	0.89
CN(C)S(=O)(=O)c1cccc(NC(=O)c2n[nH]c(=O)c3ccccc23)c1	-6	x	x	101	x	i	0.86
COC(=O)c1sc(NC(=S)NC(=O)c2ccccc2C)nc1C	-4	x	x	98	x	i	0.86
CCN(CC)C(=O)NCc1c(C)cc(C)cc1C	0	0	116	108	x	i	0.92
COc1nc(Oc2ccc(C(=O)OCC(N)=O)cc2)nc(N(C)C)n1	12	x	x	102	-2.6	i	0.88
O=C(NC1CC1)C1=C[C@@H](c2c[nH]c3ccccc23)C[C@@H](OCCCCO)O1	x	x	x	100	x	i	0.84
O=C(NC(=S)Nc1ccc(S(=O)(=O)Nc2nccs2)cc1)C1CC1	x	x	x	107	x	i	0.85
Cc1cc(C(=O)N=Nc2c(O)n(C(C)C)c3ccccc23)n[nH]1	-9	-28	122	75	-0.8	i	0.88
O=C(NNC(=O)c1csc(-c2cccnc2)n1)c1ccccc1	x	x	x	116	x	i	0.93
CCc1nnc(NC(=O)CSc2nc3ccccc3c(=O)n2CCCOC)s1	-4	31	132	108	-0.6	i	1.1
CNc1ccc(SC#N)cc1	0	x	x	100	x	i	0.99
COc1ccc(-c2nc(C=O)cs2)cc1	x	x	x	98	x	i	0.94
COc1cc(NC(=S)N2CCc3ccccc3C2)cc(OC)c1	-8	14	118	102	x	i	0.95
CSc1ccccc1NC(=O)COc1ccccc1Cl	-6	-21	100	102	-2.3	i	1
O=C(Nc1ccc(Oc2ccc3ccccc3c2)cc1)c1ccco1	-2	x	x	106	-1.6	i	0.68
COC1(OC)N=C(N)C2(C#N)C(c3ccc4c(c3)OCO4)C12C#N (centres undefined)	12	x	x	98	-1.1	i	1.1
Cc1ccc2nc(SCc3nnc(-c4cccs4)o3)[nH]c2c1	-13	x	x	102	-2.3	i	1
CCN1CCN(CCCN(Cc2cccs2)C(=S)Nc2ccccc2C)CC1	-4	x	x	99	x	i	0.95
CCN1C(=O)c2cccc3c(NC(=O)C4CCCCC4)ccc1c23	7	-50	186	93	-1.4	i	0.86
CS(=O)(=O)N1CCC(C(=O)N2CCN(c3ccc(F)cc3)CC2)CC1	-1	x	x	141	x	i	0.94
CC1CN(S(=O)(=O)c2cccc3nsnc23)CC(C)O1 (centres undefined)	-8	45	93	99	-1.7	i	0.68
O=C(NCCCCc1ccccc1)C1CC(c2cccc(F)c2)=NO1 (centres undefined)	x	x	x	104	x	i	0.66
CCCCOc1ccc(NC(=O)c2cnc(C)cn2)cc1	-2	8	115	95	-0.9	i	1
O=C(O)Cn1c(-c2ccccc2)nc2ccccc21	7	7	115	99	-2.0	i	1
CCC(C)(C)NC(=O)CN(C(=O)CCC(=O)Nc1ccccn1)c1ccc(F)c(Cl)c1	-4	0	104	101	-2.9	i	0.99
O=Cc1ccc(-c2ccc(C(=O)O)cc2)o1	x	x	x	111	x	i	1.2
Nc1ccc(C(=O)OCC(=O)Nc2ccc3c(c2)OCO3)cc1[N+](=O)[O-]	1	48	88	16	-0.4	i	0.99
O=C(Nc1cc(C(F)(F)F)ccc1Cl)c1cc(C2CC2)on1	1	40	113	100	-0.1	i	1.1
COC(=O)c1ccccc1C(=O)N1CCCC(C(=O)c2cc(F)ccc2F)C1 (centres undefined)	-2	x	x	105	x	i	0.92
CCCC(=O)Nc1nnc(-c2cccc(OCC)c2)s1	-7	29	103	103	-0.7	i	0.83
CCO/C=C1\C(=O)N(c2ccc(OCC)cc2)C(=O)c2ccccc21	-9	x	x	97	x	i	0.89
O=C(CCc1ccccc1)Nc1ncc2c(n1)CCCC2=O	-7	x	x	82	-1.7	i	1
Clc1ccc(N2CCCCCC2)nn1	-9	36	128	100	-5.4	i	0.92
CC(C)CNC(=O)c1c2c(nc3ccccc13)-c1ccccc1CC2	5	-70	111	100	-2.1	i	1.1
Fc1cccc(Oc2nc3ccccc3n3cccc23)c1	4	23	138	101	-0.8	i	0.85
Cc1c(Cl)cccc1NC(=S)N1CCN(c2ncccn2)CC1	4	-50	115	110	-0.5	i	1.2
O=C(NCC1CCCO1)c1cccc(S(=O)(=O)NCc2ccccc2)c1 (centres undefined)	-4	44	67	99	x	i	0.96
CN(C)S(=O)(=O)c1ccccc1C#N	-5	40	150	99	-1.9	i	0.8
Cc1[nH]n(-c2ccccc2)c(=O)c1C=Nc1ccc(S(=O)(=O)N(C)C)cc1	4	-38	196	102	-2.3	i	1

A different layout for some results above:
| Compound | PKD1 inh | INS promoter inh | INS promoter inh cell count | RGS16-Gao HTS | GALR2 agonist | HSV replic up | HSV replic up primary fold |
| --- | --- | --- | --- | --- | --- | --- | --- |
| COC(=O)c1ccccc1C(=O)N1CCCC(C(=O)c2cc(F)ccc2F)C1 (centres undefined) | -2 | x | x | 105 | x | i | 0.92 |
| CCCC(=O)Nc1nnc(-c2cccc(OCC)c2)s1 | -7 | 29 | 103 | 103 | -0.7 | i | 0.83 |
| CCO/C=C1\C(=O)N(c2ccc(OCC)cc2)C(=O)c2ccccc21 | -9 | x | x | 97 | x | i | 0.89 |
| O=C(CCc1ccccc1)Nc1ncc2c(n1)CCCC2=O | -7 | x | x | 82 | -1.7 | i | 1 |

Later entries.
SMILES	PKD1 inh	INS promoter inh	INS promoter inh cell count	RGS16-Gao HTS	GALR2 agonist	HSV replic up	HSV replic up primary fold
CN(C(=O)c1cccn(Cc2ccccc2)c1=O)c1ccccc1	-2	x	x	101	x	i	0.93
c1ccc(C2=Nc3c(ccc4ccccc34)C(c3ccncc3)=NN2)cc1	2	x	x	96	x	i	0.77
O=C(CSC1=NNC(c2ccccn2)S1)Nc1cccc(Cl)c1 (centres undefined)	x	x	x	98	x	i	0.93
Cc1cc(C)c2c(N)c(C(=O)c3ccc(Cl)cc3)sc2n1	-1	72*	105*	103	0.3	i	0.96
O=C(c1cccc(F)c1)N1CCC(O)(c2cccnc2)CC1	3	-43	51	90	-0.9	i	1
COc1ccnc(Oc2ccc(F)cc2)c1C#N	-7	x	x	93	x	i	1
COc1cc(NC(=O)C2CCCO2)c(OC)cc1NC(=O)c1ccccc1 (centres undefined)	-4	-55	210	96	-0.4	i	0.81
N#CC1=C(N)OC2=C(CC/C2=C\c2ccc(F)cc2)C1c1ccc(F)cc1 (centres undefined)	13	x	x	111	2.7	i	1.2
CCOC(=O)c1cc2c(=O)n3cccc(C)c3nc2n(Cc2ccco2)c1=NC(=O)c1cccnc1	1	-108	72	93	0.4	i	0.96
COC(=O)c1ccc(CSc2nnc(Nc3cccc(OC)c3)s2)o1	-4	24	106	102	-0.1	i	0.94
CCC(=O)c1ccc(OCC(=O)O)cc1	8	x	x	-6	-2.3	i	0.79
CCc1cccc(NS(=O)(=O)c2ccc3c(c2)oc(=O)n3C)c1	3	x	x	100	-1.6	x	x
O=C(CSc1nnc(-c2ccccc2)c2ccccc12)NCC1CCCO1 (centres undefined)	-2	x	x	97	x	i	0.9
Cc1ccc(-n2cc[nH]c2=S)c(C)c1	-7	x	x	109	x	i	0.99
NC(=O)NCc1cccs1	1	33	84	50	x	i	0.98
CCOc1ccc(C(=O)CN2CCN(S(=O)(=O)c3ccc(OC)cc3)CC2)cc1	0	39	110	36	-0.9	i	0.9
O=S(=O)(NCC1CCCO1)c1ccc(Br)s1 (centres undefined)	2	-105	162	42	0.0	i	1
CCOCCc1nnc(NC(=O)CN2C(=O)c3ccccc3C2=O)s1	1	69	119	141	-2.4	i	0.91
COc1ccccc1NC(=O)CN(Cc1ccco1)C(=O)c1ccc(=O)[nH]c1	x	x	x	97	x	i	1
CCc1nc2sc3ccccc3c(=O)c2c(=O)n1Cc1ccco1	-4	-4	110	71	-0.6	i	1.2
O=S(=O)(N1CCCCC1)N1CCN(CC(O)COc2ccc3cc(Br)ccc3c2)CC1 (centres undefined)	-1	x	x	100	-2.0	i	0.94
Cc1ccc(C(=O)Oc2cc(N)n(S(=O)(=O)c3ccc(C)cc3)n2)cc1	-5	14	89	100	x	i	0.89
CCOc1ccc(NC(=O)/C=C/c2ccc(OC)cc2)c([N+](=O)[O-])c1	2	13	89	110	0.4	i	1
COc1ccc(-n2nc(C(=O)NCC(=O)NCc3ccco3)c3ccccc3c2=O)c(OC)c1	-9	28	85	101	0.5	i	0.83
C=CCOc1c(CNc2cccc(C(=O)O)c2)cccc1OCC	-21	-3	95	108	0.6	i	0.93
CSc1nc2ccccc2cc1/C=C(\C#N)c1ccccc1	-3	28	113	100	2.6	i	0.75
O=C1CC(N2CCC(Cc3ccccc3)CC2)C(=O)N1CCc1ccccc1 (centres undefined)	2	-16	112	105	0.4	i	0.81
CC1=CSC2=NC(=O)/C(=C/c3cccc(OC(=O)c4ccco4)c3)C(=N)N12	-4	33	130	110	-0.5	i	0.97
CC(C)(C)NC(=O)C(c1cccs1)N(Cc1cccs1)C(=O)c1ccc(CN2CCOCC2)o1 (centres undefined)	0	-136	103	104	x	i	0.95
COc1cccc(C(=O)Nc2ccc(C(F)(F)F)n(C)c2=O)c1	-7	43	105	61	-0.9	i	0.94
O=C(COC(=O)CNC(=O)c1ccccc1F)Nc1cccc(S(=O)(=O)N2CCCCCC2)c1	1	-114	135	102	x	i	0.9
C/C(=N/NC(=O)C1CCN(S(=O)(=O)c2ccc(C)cc2)CC1)c1cccc([N+](=O)[O-])c1	-5	-26	108	106	1.6	i	0.87
CCCCC(CC)CNC(=O)Cn1c(=O)[nH]c2ccsc2c1=O (centres undefined)	2	x	x	85	x	i	0.63
O=C(NCCN1CCOCC1)c1ccccc1Oc1ccccc1	4	9	121	104	-3.4	i	0.72
CN(C)S(=O)(=O)N1CCN(c2ccc([N+](=O)[O-])c(N3CCOCC3)c2)CC1	-1	x	x	102	x	i	1.1
CCCc1cc(C(=O)Nc2cnn(Cc3ccc(F)cc3)c2)no1	x	x	x	100	x	i	1.1
O=C(NN=C1C2CC3CC(C2)CC1C3)c1cc(Cl)ccc1O	-4	14	84	99	-2.0	i	1
CC(C)(C)n1ncc2c(=O)n(CC(=O)NCc3ccco3)cnc21	-11	29	126	104	-1.4	i	0.92
CCn1c(CCCNC(=O)c2ccc(F)cc2)nc2ccccc21	-1	x	x	94	-1.3	i	1
Cc1nc2nc(COc3ccccc3)[nH]n2c(=O)c1Cl	-6	x	x	105	-1.1	i	0.94
Nc1ccnn1-c1ccccc1	x	x	x	100	x	i	1.1
Cc1nc2ccccc2c2c(N)c3ccccc3n12	-2	x	x	100	x	i	0.93
CC(=O)c1ccc(OCC(=O)c2cc(C)n(-c3ccc4c(c3)OCO4)c2C)cc1	0	-26	119	96	-0.9	i	0.97
COc1cc(/C=C2\SC(N)=NC2=O)ccc1OCC(=O)Nc1ccc(C)cc1	-11	x	x	94	-0.8	i	1
O=C(Oc1nsnc1N1CCOCC1)c1ccccc1	12	-28	93	100	-0.6	i	0.79
Cc1ccc(-c2ccccc2)n1-c1ccc(C(=O)O)cc1	-1	45	110	100	-0.6	i	0.82
COc1ccc(OCC(=O)OC2CCCN(C)C2)cc1 (centres undefined)	x	x	x	106	x	i	1.4
FC(F)(F)c1nnc(Nc2ccc(Cl)cc2)s1	x	x	x	96	x	i	0.76
CC(C)c1ccc(NC(=S)N(C)CCc2ccccn2)cc1	1	-59	92	100	x	i	0.9
O=C(O)CCN1C(=O)C2C3CC(C2C1=O)C1C(c2ccccc2)c2sc(=O)n(-c4ccccc4)c2SC31 (centres undefined)	-8	33	145	102	x	i	0.98
CCc1nc2ccccc2n1Cc1cc(=O)n2cc(C)ccc2n1	8	-21	121	96	-1.0	i	0.75
O=C(Cc1coc2ccc3ccccc3c12)N1CCN(c2ncccn2)CC1	0	x	x	101	-0.8	i	0.79
C#CCOCCOCCOCCNc1nc(N2CCN(C(=O)[C@H](CCC(=O)O)n3cc(C(N)[C@H](C)CC)nn3)CC2)nc(N2CCN(C(=O)[C@H](Cc3cc4ccccc4[nH]3)n3cc(C(N)[C@H](C)CC)nn3)CC2)n1 (some centres undefined)	14	x	x	95	x	x	x

As entered above.
For RGS16-Gao HTS, FC(F)(F)c1nnc(Nc2ccc(Cl)cc2)s1 has the entry 96
For RGS16-Gao HTS, O=C(Oc1nsnc1N1CCOCC1)c1ccccc1 has the entry 100
For RGS16-Gao HTS, COc1cc(/C=C2\SC(N)=NC2=O)ccc1OCC(=O)Nc1ccc(C)cc1 has the entry 94
For HSV replic up primary fold, Cc1nc2ccccc2c2c(N)c3ccccc3n12 has the entry 0.93
For GALR2 agonist, O=C(Cc1coc2ccc3ccccc3c12)N1CCN(c2ncccn2)CC1 has the entry -0.8

Compounds as they come; overall some 1.1% were active at least once.
